HNF4A DNA FP = change in binding of human HNF4 alpha to DNA; P41235; HNF4a-FITC DNA binding, fluorescence polarization, 1 h; activity change, % at 10 µM; actives 0.3% (n = 360,000); AID 1224865; in the data active = activity change above about 30%, passing the limit was not always enough;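 note: controls were the assay level and a saturating level of protein; the project sought stronger binding though the title names inhibitors; some compounds called inactive have numbers as strong as hits; positive values seem to mean higher polarization but the record does not say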
Target sequence (P41235 whole entry, looked up): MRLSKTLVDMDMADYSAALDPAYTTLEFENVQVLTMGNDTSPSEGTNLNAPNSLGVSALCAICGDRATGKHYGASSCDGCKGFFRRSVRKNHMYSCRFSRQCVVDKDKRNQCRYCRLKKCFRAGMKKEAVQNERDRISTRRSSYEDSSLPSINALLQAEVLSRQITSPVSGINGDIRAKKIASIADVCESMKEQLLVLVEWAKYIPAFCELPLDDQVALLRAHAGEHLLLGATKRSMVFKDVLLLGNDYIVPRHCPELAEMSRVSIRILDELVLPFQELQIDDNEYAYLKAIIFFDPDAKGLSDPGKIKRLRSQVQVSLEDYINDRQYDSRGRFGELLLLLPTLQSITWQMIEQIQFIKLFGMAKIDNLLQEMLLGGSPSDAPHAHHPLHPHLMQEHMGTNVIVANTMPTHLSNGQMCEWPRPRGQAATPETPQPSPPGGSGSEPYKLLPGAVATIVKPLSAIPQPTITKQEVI
RanGTP-Impb inh = disruptors of Ran-importin-beta complex formation – biochemical, FRET, CFP-Ran, YFP-importin-beta, homogeneous, primary screen; cell-free CFP-Ran/YFP-importin-beta FRET ratio; inhibition, % (concentration not given with the values); actives 1.1% (n = 300,000);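 active = most replicates above 15%; inconclusive = exactly half above 15%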;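 note: 0% = DMSO wells and 100% = Ran loaded with GDP instead of GTP; wells of about 40 µL received 100 nL stock; the first replicate is given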
Vif TR-FRET = inhibitors of Vif binding to APOBEC3G peptide, primary screen, biochemical, TR-FRET, GST-Vif 1-94, biotin-A3G peptide, dose response retest (AID 1117319); TR-FRET GST-Vif / biotin-A3G peptide binding; higher % means a stronger effect; test concentration not given here; strong numbers were not always called active; one-dose inhibition, %; IC50 in µM for titrated hits; actives 0.57% (n = 260,000);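 active = above the screen mean plus three standard deviations and confirmed in dose response; inconclusive = results disagree or hit not tested in dose response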;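 note: Vif residues 1-94 fused to GST binding biotinylated APOBEC3G peptide 110-148; 0% = full assay without inhibitor and 100% = GST in place of GST-Vif; retest series ran down from 100 µM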
Beta2AR agonist = human beta-2 adrenergic receptor agonism by FAP; P07550; Am2.2-beta2AR cells, FAP receptor internalization, flow cytometry; reference of the scale not given here; response, % (no concentration beside the values); actives 0.43% (n = 340,000); AID 504454;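 active = response above a set limit, near 3 SD of response in nonfluorescent compounds, cut at about 42% in these data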;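 note: stock transfer was 100 nL into about 11 µL; a reference agonist was the positive control; negative values mostly stem from fluorescent compounds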
Target sequence (P07550 whole entry, looked up): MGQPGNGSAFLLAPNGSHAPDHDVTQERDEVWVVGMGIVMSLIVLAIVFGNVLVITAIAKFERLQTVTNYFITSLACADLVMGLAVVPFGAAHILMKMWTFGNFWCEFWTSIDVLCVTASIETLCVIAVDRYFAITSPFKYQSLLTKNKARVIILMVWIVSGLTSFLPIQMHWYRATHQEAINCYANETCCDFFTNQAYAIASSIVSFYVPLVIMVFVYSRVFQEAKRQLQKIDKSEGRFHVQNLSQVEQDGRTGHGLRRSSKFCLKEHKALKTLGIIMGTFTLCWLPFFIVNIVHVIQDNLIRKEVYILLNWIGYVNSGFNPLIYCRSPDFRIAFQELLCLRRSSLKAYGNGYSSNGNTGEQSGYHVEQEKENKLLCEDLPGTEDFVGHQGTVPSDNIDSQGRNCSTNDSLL
Calb FLC = affects C. albicans growth with fluconazole. C. albicans CaCi-2 (fluconazole-resistant clinical isolate) + fluconazole, Alamar Blue growth, 48 h. growth inhibition, % (concentration not given with the values). actives 0.57% (n = 300,000). AID 1979;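 active = most replicates above 75%; inconclusive = exactly half above 75%; inactive = most below 75%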;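 note: all wells also contain fluconazole at 8 µg/ml as a sub-toxic cotreatment; 0% = median of DMSO wells and 100% = median of geldanamycin control wells; wells of about 8 µL received 7.5 nL stock; the first replicate is given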
ALR inh = inhibitors of human sulfhydryl oxidase ALR | P55789 | purified ALR, DTT oxidation, H2O2 HRP-luminol luminescence | inhibition, % (concentration not given with the values) | actives 3.8% (n = 290,000);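 active = mean and each replicate at 75% or more; inconclusive = only one of the two met; inactive = neither met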;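 note: stock transfer was 7.5 nL into about 7.5 µL; 0% = neutral wells and 100% = wells with inactivated enzyme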
Target sequence (P55789 whole entry, looked up): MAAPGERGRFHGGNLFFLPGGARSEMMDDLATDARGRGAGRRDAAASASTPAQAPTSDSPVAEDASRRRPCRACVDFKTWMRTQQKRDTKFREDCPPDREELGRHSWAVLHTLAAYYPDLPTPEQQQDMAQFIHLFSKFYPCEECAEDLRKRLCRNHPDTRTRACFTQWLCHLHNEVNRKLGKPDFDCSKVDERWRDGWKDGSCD
LANA-H2A inh = blocks KSHV LANA binding to histone H2A/H2B | actives 0.6% (n = 320,000) | AID 2629 | inhibition, % (no concentration beside the values) | cell-free LANA-H2A/H2B peptide, fluorescence polarization | Q9QR71; in the data active = inhibition mostly above about 10%, no sharp cut-off; inactive = mostly below about 6.7%;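 note: stock transfer was 7.5 nL into about 10 µL; 0% = median of vehicle wells and 100% = median of positive control wells; one replicate is shown; the record names a cut of 25% in any replicate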
Starred values were filed as active, the others as inactive; i = inactive; ? = inconclusive; nt = not tested or not shown; & = joins results of further samples.

| smiles | HNF4A DNA FP | RanGTP-Impb inh | Vif TR-FRET | Beta2AR agonist | Calb FLC | ALR inh | LANA-H2A inh |
| --- | --- | --- | --- | --- | --- | --- | --- |
| CCC1CCC/C1=N\NC(=O)c1ccc(Cl)cc1 (stereo not given) | 2.4 | -0.7 | nt | -3.1 | -9.0 | -14.7 | -3.6 |
| CC(=O)Nc1ccc(SCC(=O)c2cc(C)n(-c3ccccc3F)c2C)cc1 | -2.2 | 3.3 | 0.4% | -6.8 | -13.0 | 98.4* | 6.3 |
| NC(=O)C[C@@H]1NC(=O)[C@H](CCC(=O)O)NC(=O)c2cc([N+](=O)[O-])cc(I)c2OCC[C@@H](C(N)=O)NC1=O | -4.6 | -3.9 | 16.5% | -0.2 | 1.8 | nt | 3.4 |
| O=C(O)CSc1c2c(nc3cc(C(=O)N4CCOCC4)ccc13)CCCC2 | 0.1 | 30.8* | 5.6µM* | 0.7 | 39.2 | 37.0 | 1.5 |
| CCC1CN(C(=O)Nc2ccc(C)cc2)c2cc(C)ccc2O1 (stereo not given) | 2.9 | 2.0 | -5.5% | 5.5 | 29.0 | -3.0 | -2.5 |
| COC(=O)CSc1[nH]c(=O)cc(C)c1C#N | -7.8 | 2.1 | -2.8% | 4.8 | 2.4 | -16.1 | -3.3 |
| C/C(=N\NC(=O)C1(C)CC1(Br)Br)c1cccc(NC(=O)c2ccc(C)o2)c1 (stereo not given) | -7.2 | -2.8 | -4.8% | 25.2 | 9.7 | -0.4 | -7.4 |
| Cc1cc(C(=O)CSc2nn3c(=O)c(C(C)(C)C)nnc3s2)c(C)n1C | 0.1 | -5.1 | ? | -0.7 | -0.9 | 92.3* | -1.2 |
| CCc1nc(C)cn1S(=O)(=O)c1cc(Br)c(C)cc1OC | 1.2 | 0.2 | 0.2% | -5.8 | 1.7 | nt | -3.6 |
| CC(C)(C)NC(=O)NC(=O)COC(=O)CNC(=O)C1CCCCC1 | -2.3 | -2.6 | 1.4% | -7.0 | -0.6 | -4.2 | 4.4 |

Grouped by structure: those above containing a tert-butyl group.
| smiles | HNF4A DNA FP | RanGTP-Impb inh | Vif TR-FRET | Beta2AR agonist | Calb FLC | ALR inh | LANA-H2A inh |
| --- | --- | --- | --- | --- | --- | --- | --- |
| Cc1cc(C(=O)CSc2nn3c(=O)c(C(C)(C)C)nnc3s2)c(C)n1C | 0.1 | -5.1 | ? | -0.7 | -0.9 | 92.3* | -1.2 |
| CC(C)(C)NC(=O)NC(=O)COC(=O)CNC(=O)C1CCCCC1 | -2.3 | -2.6 | 1.4% | -7.0 | -0.6 | -4.2 | 4.4 |

(list continues)
| smiles | HNF4A DNA FP | RanGTP-Impb inh | Vif TR-FRET | Beta2AR agonist | Calb FLC | ALR inh | LANA-H2A inh |
| --- | --- | --- | --- | --- | --- | --- | --- |
| COc1ccc2sc(/C=C/c3ccccc3O)[n+](C)c2c1 | 51.5* | nt | 10.9% | -321.5 | nt | nt | nt |
| CCOC(=O)c1cc(CC)sc1/N=C/C1C(=O)CC(C)(C)CC1=O | 1.8 | -3.3 | -4.0% | 0.7 | -0.4 | 3.7 | -7.2 |
| O=C(NCc1ccncc1)C12CC3CC(CC(C3)C1)C2 | -0.2 | 0.3 | 0.6% | 5.6 | -17.6 | -12.7 | 1.4 |
| O=C(CCn1ccc2cc(S(=O)(=O)N3CCCC3)ccc21)NCc1ccccc1 | 0.3 | 5.7 | -4.8% | 0.2 | -2.8 | -1.9 | -1.4 |
| Cc1cc(=O)oc(C)c1C(=O)N1CCN(Cc2ccc3c(c2)OCO3)CC1 | -0.4 | 0.4 | 12.2% | 1.9 | -9.0 | -26.3 | 1.7 |
| COc1ccccc1OCC(=O)NCc1ccco1 | -0.3 | -2.2 | 8.1% | -1.2 | -7.9 | 2.4 | -1.0 |
| Cc1cc(OC(C)C(=O)N2CCN(c3ccc(F)cc3)CC2)c2c(C)cc(=O)oc2c1 (stereo not given) | 0.0 | -2.9 | nt | 7.3 | -1.6 | -2.0 | -0.2 |
| CC(C)(C)OC(=O)N[C@@H](C(=O)OC(C)(C)C)c1ccc2c(c1)OCO2 | -2.5 | nt | nt | -5.2 | nt | -3.0 | -2.3 |
| Cc1ccc2ccccc2c1CSc1nc(N)nc2c1ncn2CC(C)C | -1.5 | nt | -2.2% | 2.7 | nt | nt | nt |
| O=C(Cc1ccccc1)NNC(=S)NC(=O)c1cccs1 | 0.5 | 2.9 | 0.1% | -0.8 | 47.4 | 97.0* | 1.3 |
| COc1ccc(/C=C2\CCc3ccccc3C2=O)c(OC)c1OC | -0.7 | 3.5 | 0.4% | -10.3 | 7.2 | -11.2 | -12.1 |
| Cc1cc(=O)cc(C)n1-c1ccc(F)cc1F | 0.0 | -1.4 | -7.1% | -1.1 | -14.0 | 3.4 | -8.2 |
| CN(C)C(=O)N(CCCN1CCOCC1)Cc1cccc2ccccc12 | 3.8 | 2.0 | -7.3% | -2.7 | -1.4 | -11.4 | -6.5 |
| COc1cc2ccccc2cc1C(=O)NNC(=O)c1ccccc1O | 5.0 | 4.7 | nt | -2.0 | 94.5* | 6.7 | -2.0 |
| O=c1[nH]cnc2nn(-c3ccccc3)nc12 | -2.8 | -0.7 | 27.8% | -10.8 | 3.0 | -4.9 | -0.9 |
| Cc1ccc(C2(O)CN(c3ccccc3C)C3=[N+]2CCS3)cc1 (stereo not given) | -1.6 | -3.7 | nt | 2.7 | 5.4 | 16.0 | 3.0 |
| Cc1cc(O)c(Sc2ncn[nH]2)cc1NS(=O)(=O)c1ccc(Cl)cc1 | -6.4 | nt | -13.0% | 8.2 | nt | 92.7* | -1.4 |
| COc1ccc(CN2CCn3ncc(C(=O)Nc4cccc(C)c4)c3C2=O)cc1 | -3.1 | -4.5 | 28.6% | -2.4 | -2.1 | -2.6 | 4.0 |
| CC(C)(C)c1ccc(-c2cc(-c3ccccc3O)[nH]n2)cc1 | -0.7 | 5.0 | nt | 14.8 | 17.2 | -1.3 | -1.1 |
| Clc1ccc(Cc2noc(-c3cccs3)n2)cc1 | 1.4 | -0.2 | -0.3% | -12.0 | -3.1 | -2.3 | -3.5 |
| Cc1cccc(Cn2nnc3c2C(=O)c2ccccc2C3=O)c1 | -1.9 | 4.5 | 6.6% | 4.2 | -9.7 | -20.8 | 4.7 |
| COC(=O)CN1C(=O)C(O)(CC(=O)c2ccc(C)cc2)c2ccccc21 (stereo not given) | -2.6 | -1.1 | 5.5% | 7.8 | -4.2 | 4.6 | -3.0 |
| NC(=O)Cn1nc(C(F)(F)F)c2c1CCCC2 | -1.0 | 12.1 | -5.2% | 1.1 | 24.5 | nt | -3.5 |
| Cc1cccc2cc(CN(CCCN3CCOCC3)Cc3nnnn3C(C)(C)C)c(=O)[nH]c12 | 0.1 | -3.5 | -2.1% | -8.2 | 1.9 | 6.9 | -0.6 |
| CC(=O)/C=C/c1ccc(C)o1 | -2.1 | -2.1 | ? | 9.0 | -1.8 | 1.8 | 4.1 |
| CCOC(=O)C1(Cc2cccc(OC)c2)CCN(Cc2ccon2)CC1 | 1.8 | 7.1 | -0.3% | -8.1 | 2.8 | -3.1 | -0.5 |
| CC(C)Cn1c(-c2ccc(F)cc2)n[nH]c1=S | -2.0 | 1.5 | -9.6% | -1.6 | -2.1 | 57.1 | -3.4 |
| O=c1c2ccccc2nc(/C=C/c2ccc(O)cc2)n1CCc1ccccc1 | 2.0 | 3.4 | 0.7% | 3.0 | -3.4 | 42.5 | 4.9 |
| CSc1ccccc1OCc1cc(C(=O)NCCc2nc(C)cc(C)n2)no1 | -0.9 | -6.0 | nt | -3.6 | 1.6 | nt | nt |
| O=C1CCC(C(=O)N2CCSCC2)CN1Cc1cccc(C(F)(F)F)c1 (stereo not given) | -1.2 | 5.1 | 0.9% | -4.2 | 15.6 | 1.8 | 3.0 |
| O=C(NCc1ccc(F)cc1)C(c1ccccc1)N(CC1CCCO1)C(=O)Cn1nnc2ccccc21 (stereo not given) | 2.7 | -0.8 | nt | 16.8 | 91.6* | -3.8 | 0.2 |
| CC(=O)Nc1nc(-c2ccccc2)cc(-c2ccco2)c1C#N | 10.5 | nt | nt | 21.5 | nt | 10.4 | 5.0 |
| Cc1ccc(N(CCC#N)C(=O)COC(=O)C2=COCCO2)cc1 | 2.0 | ? | -7.5% | -1.6 | nt | -9.6 | 5.0 |
| O=C(CC1C(=O)N(c2ccccc2)C(=O)N1C1CCCCC1)Nc1ccccc1 (stereo not given) | -0.4 | -3.8 | 1.9% | 1.2 | 13.8 | -10.1 | 0.8 |
| CCOc1cc(/C=N\Nc2nc(-c3ccc(C)cc3)c(NC(C)=O)s2)ccc1O | 0.3 | 2.2 | 1.8% | 8.3 | -1.9 | 6.3 | 1.3 |
| CCNC(=S)N1CCNC(=O)C1CC(=O)OC (stereo not given) | 2.1 | 2.0 | 28.3% | 6.3 | 58.1 | -4.6 | 1.7 |
| N#Cc1c(NC(=O)CN2C(=O)c3ccccc3C2=O)oc(-c2ccccc2)c1-c1ccccc1 | -4.6 | 5.0 | 0.1% | 6.5 | 14.0 | 0.0 | 1.2 |
| Nc1ncnc2c1ncn2[C@@H]1O[C@H](CNS(=O)(=O)c2ccc(-c3ccno3)s2)[C@@H](O)[C@H]1O | -1.9 | nt | -3.8% | -7.3 | nt | nt | nt |
| COC(=O)CCN1CCN(S(=O)(=O)c2cccc(Br)c2)CC1 | 1.3 | 0.8 | 2.8% | 3.4 | 19.6 | -1.7 | i |
| CN(CC(=O)Nc1ccccc1C(F)(F)F)C(=O)COc1cccnc1[N+](=O)[O-] | -4.4 | 2.6 | -3.6% | -2.5 | 3.0 | -22.5 | -0.3 |
| CN(C)c1ccc(C(=O)NCC2CCCO2)cc1 (stereo not given) | -4.4 | -2.3 | -5.6% | 1.6 | -22.4 | 6.3 | 1.6 |
| CCC(C)(C)n1nnnc1C(c1cc2cccc(C)c2[nH]c1=O)N1CCN(C(=O)c2ccco2)CC1 (stereo not given) | 6.2 | 17.0* | 19.2%&-11.8% | -9.0 | 6.7 | 5.3 | -5.8 |
| C=CCNC(=O)CN1C2CCCC1CC(NC(=O)c1ccccc1C)C2 (stereo not given) | 0.8 | -2.8 | 19.4% | 1.6 | -6.8 | -10.2 | -2.4 |
| COc1ccc(CCNC(=O)Cc2ccc(OCc3ccccc3)c(OC)c2[N+](=O)[O-])cc1OCc1ccccc1 | -3.1 | 3.8 | -0.9% | -9.9 | 3.2 | nt | -0.9 |
| Brc1cccc(/C=N/Nc2nn[nH]n2)c1 | -1.4 | 0.5 | nt | -4.6 | 1.4 | 30.8 | -0.6 |
| C(=N\n1cnnc1)/C1CCCCC1 | -0.6 | -2.4 | 1.8% | -1.8 | -6.7 | -2.9 | -0.7 |
| Cn1cc(S(=O)(=O)N2CCN(Cc3ccccc3)CC2)c(=O)n(C)c1=O | 0.9 | ? | -3.5% | -4.4 | -6.7 | 2.2 | -2.8 |
| CCOc1ccc(Nc2nc(N3CCOCC3)nc(N3CCOCC3)n2)cc1 | -1.5 | -0.4 | 5.2% | 3.4 | -11.1 | 2.2 | 4.9 |
| CCOC(=O)c1sc(NC(=O)CNCc2cccnc2)c(C(=O)OCC)c1C | 3.1 | -0.2 | nt | -13.9 | 32.0 | 0.0 | 0.2 |
| Cn1c(=O)c([N+](=O)[O-])c(-n2cnc3ccccc32)c2ccccc21 | 2.5 | -2.9 | 19.3% | 10.8 | -5.7 | nt | -1.8 |
| Cc1cc(N2CCN(c3ccccc3)CC2)n2cc(-c3ccccc3)nc2n1 | 1.8 | 2.0 | 0.3% | -9.3 | -11.3 | 27.3 | 0.8 |
| O=C(Cc1ccc(-c2ccccc2)cc1)Nc1ccccn1 | -1.4 | -3.2 | 2.8% | -15.2 | -9.9 | -23.9 | 1.7 |

Bioassay records: PubChem, several laboratories
